gsp agonist – qHTS for Agonist of gsp, the Etiologic Mutation Responsible for Fibrous Dysplasia/McCune-Albright Syndrome: qHTS | gsp mutant cells, cAMP HTRF, 30 min; control for the full effect not named in the record | Potency, µM (top dose mostly 76.9 µM), for the others: at the top dose activation (cAMP increase), actives largely listed as activators | 340,000 compounds, 0.13% hits; active = well fitted activation curve with a large enough effect; inconclusive = small, poorly fitted or top-dose-only effect, or another doubt; inactive = no such curve, though single readings can be large or run the other way; cell line not stated here;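 further: phosphodiesterase inhibitor Ro 20-1724 added with compounds to block cAMP breakdown; potency means the concentration at half of the fitted maximal effect; nearly all actives have a fitted effect of over 60% in size; about a fifth of the inactives were tested at one dose only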
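Cells in DMEM/10% FBS with G418 were pretreated with compounds in DMSO plus […] (300 uM stock) for 30 min at 37C. cAMP was measured by HTRF (cAMP-d2 plus anti-cAMP antibody-K) after 30 min at room temperature.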
TRPV1 PAM – HTS Assay for Compounds that Act as Potentiators of the Vanilloid Receptor 1. potentiation, % at 8.33 µM. Transient receptor potential cation channel subfamily V member 1 (Homo sapiens), Q8NER1. 320,000 compounds, 0.02% hits. TRPV1-expressing cells, Fluo-8 calcium influx, capsaicin EC20 potentiation; host cell line not named in the record; control for the full effect not named in the record; active means potentiation above 80%; inconclusive means 30% to 80%; inactive means below 30%; further: 0% is about no effect
Target sequence (Q8NER1 whole entry, looked up): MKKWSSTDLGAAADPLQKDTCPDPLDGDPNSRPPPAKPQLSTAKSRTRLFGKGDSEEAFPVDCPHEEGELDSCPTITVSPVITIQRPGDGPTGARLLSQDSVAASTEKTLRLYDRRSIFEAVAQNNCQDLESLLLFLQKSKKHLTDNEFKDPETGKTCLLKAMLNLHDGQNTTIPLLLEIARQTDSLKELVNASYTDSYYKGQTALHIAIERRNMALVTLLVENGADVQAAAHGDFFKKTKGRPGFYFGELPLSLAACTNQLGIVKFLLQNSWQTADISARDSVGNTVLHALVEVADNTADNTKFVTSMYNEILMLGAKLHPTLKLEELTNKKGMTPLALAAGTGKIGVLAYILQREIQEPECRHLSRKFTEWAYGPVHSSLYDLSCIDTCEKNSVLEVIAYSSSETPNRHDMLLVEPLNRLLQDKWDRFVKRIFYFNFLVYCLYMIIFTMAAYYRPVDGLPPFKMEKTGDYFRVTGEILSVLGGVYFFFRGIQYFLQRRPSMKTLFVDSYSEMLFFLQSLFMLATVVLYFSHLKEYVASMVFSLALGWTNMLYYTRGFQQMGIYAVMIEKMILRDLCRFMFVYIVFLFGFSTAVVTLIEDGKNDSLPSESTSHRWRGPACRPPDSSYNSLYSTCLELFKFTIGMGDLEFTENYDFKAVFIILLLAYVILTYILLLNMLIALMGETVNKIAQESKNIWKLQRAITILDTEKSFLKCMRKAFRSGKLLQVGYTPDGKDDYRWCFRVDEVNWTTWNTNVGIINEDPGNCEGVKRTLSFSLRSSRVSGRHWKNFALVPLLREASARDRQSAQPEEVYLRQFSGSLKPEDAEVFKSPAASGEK
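Cells expressing TRPV1 were dye-loaded with Fluo-8 and read kinetically: 10 s baseline, 3 min after compound (agonist portion), then 2 min after EC20 capsaicin (allosteric enhancer portion). Calcium-bound dye fluorescence at 480/520 nm.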
D2 PAM – Beta-Arrestin HTS for Positive Allosteric Modulators of the Human D2 Dopamine Receptor: Potentiators; DiscoveRx D2 beta-arrestin cells, luminescence, 90 min; 100% = 57 uM dopamine signal; potentiation, % (concentration not given with the values); 360,000 compounds, 0.23% hits; AID 624464, 2012; active = potentiation of 50% or more; inconclusive = 30% to 50%; inactive = 30% or less;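 further: tested on top of an EC20 dose of dopamine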
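PathHunter beta-arrestin assay in DiscoveRx D2 cells. Compounds were added with an EC20 of dopamine (50 nM final) for 90 min at 37 deg C. Luminescence was read 1 h after detection reagent, with 57 uM dopamine as the EC100 control.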
ClpP mod – qHTS Assay for Activators of ClpP; ATP-dependent Clp protease proteolytic subunit (Bacillus subtilis (strain 168)), P80244; purified B. subtilis ClpP, FRET peptide cleavage, 20 min; Potency, µM (highest dose often 57.5 µM), for the others: at the top dose activity change, negative = active; 340,000 compounds, 1.9% hits; active = well fitted falling curve with a large enough effect; inconclusive = small, poorly fitted or top-dose-only effect; inactive = no such curve, though single readings can be large or run the other way; further: potency means the concentration at half of the fitted maximal effect; the source files actives as falling curves though it sought activators and does not explain the sign; nearly all actives have a fitted effect of over 65% in size; many hits overshoot -100%
Target sequence (P80244 whole entry, looked up): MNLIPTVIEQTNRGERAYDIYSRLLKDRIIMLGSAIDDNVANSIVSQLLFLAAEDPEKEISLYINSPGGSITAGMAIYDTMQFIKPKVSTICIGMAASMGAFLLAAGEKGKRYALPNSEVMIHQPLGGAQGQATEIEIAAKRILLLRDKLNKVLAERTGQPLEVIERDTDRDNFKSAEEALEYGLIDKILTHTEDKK
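ClpP 10 microg/mL final, pH 8 Tris/KCl buffer with BSA, glycerol, Tween-20; compound pinned in; FRET-FV substrate; RT 20 min; Ex320/Em430; ΔFRET vs ADEP 5.8 microM, DMSO, no enzyme.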
gsp antag – qHTS for Antagonists of gsp, the Etiologic Mutation Responsible for Fibrous Dysplasia/McCune-Albright Syndrome: qHTS | 340,000 compounds, 0.4% hits | gsp-mutant cells, cAMP HTRF, 30 min; control for the full effect not named in the record | AID 624288, 2012 | Potency, µM (doses to about 76.9 µM), for inactives: top-dose activity change, negative = inhibition, most hits filed as inhibitors; active = falling curve of any shape with a large fitted effect; inconclusive = falling curve, mostly with a smaller effect; inactive = flat or rising curve; cell line not stated here;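 further: intracellular cAMP measured with PDE inhibitor Ro 20-1724 present during compound exposure; potency means the concentration at half of the fitted maximal effect; on the % scale 0 is the no-effect control and ±100 the full control effect; nearly all actives have a fitted effect of over 65% in size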
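HTRF cAMP measurement after 30 min RT detection following 30 min, 37C compound treatment alongside […] (added as 300 uM solution) in G418-selected cells seeded at 2000/well and grown 16–24 h.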
Menin-MLL FL inh – qHTS Assay for Inhibitors Targeting the Menin-MLL Interaction in MLL Related Leukemias: Competition With Fluorescein Labeled MLL-derived Peptide; FP activity change, % at 61.4 µM; 290,000 tested, under 10 active; Fluorescence polarization, fluorescein-MLL peptide displacement from menin; inconclusive = falling polarisation curve, or a change in total fluorescence; inactive = total fluorescence flat and polarisation flat or rising; no compound was filed as active; the % refers to the polarisation; negative = inhibition;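 further: % of control where 0% means no effect; inhibitors lower the polarisation; unlabelled MLL peptide was the positive control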
Sfp PPTase inh – qHTS Assay for Inhibitors of Bacillus subtilis Sfp phosphopantetheinyl transferase (PPTase); Biochemical Sfp PPTase activity, qHTS; Potency, µM, without a hit: max response, negative = inhibition, most hits filed as inhibitors; 310,000 compounds, 3.5% hits; AID 1490, 2009; active means well fitted inhibition curve with a large enough effect; inconclusive means small, poorly fitted or top-dose-only effect, or another doubt; inactive means no such curve, though single readings can be large or run the other way;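 further: the enzyme is Sfp with the accession as filed and its product quenches rhodamine fluorescence; potency means the concentration at half of the fitted maximal effect; 0% = enzyme reaction without inhibitor and -100% = no enzyme wells; top concentration of the series not given in the record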
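Reaction rates are the 30-min fluorescence difference (ex 525, em 598 nm) in wells containing 15 nM Sfp, 5 uM rhodamine-CoA and 12.5 uM BHQ-2-YbbR at pH 7.6 with 10 mM MgCl2.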
The depositor's hits bear a star; ? = inconclusive; nt = no result given; [ ] = another dose, or the depositor's remark. Rows were taken by chance; 5.1% or so of the library scored in one or more.

SMILES	gsp agonist	TRPV1 PAM	D2 PAM	ClpP mod	gsp antag	Menin-MLL FL inh	Sfp PPTase inh
COCC1CCCCN1C(=O)CCCn1nnnc1CN1CCC(C)CC1 (stereo unspecified)	14%	9	-32	1.2%	9%	2.6	15%
O=C(Nc1nc(-c2ccccc2)cs1)C1CCCCN1S(=O)(=O)c1ccc(Cl)cc1 (stereo unspecified)	-9%	13	9	0.1%	-11%	1.6	17%
O=C(CNC(=O)c1ccc2c(=O)n3c(nc2c1)CCC3)Nc1ccc(F)c(F)c1	?	17	-47	-3.0%	-3%	nt	nt
CC(Oc1ccc(Br)cc1Br)C(=O)NC1CCCC1 (stereo unspecified)	nt	4	nt	nt	nt	0.0	8%
O=S(=O)(Nc1ccc(F)cc1)c1cccc2nsnc12	-6%[15.4 µM]	-5	-7	-0.3%	-8%	-4.6	7%
COc1ccc(S(=O)(=O)N2CCC(N3CCN(c4ccccc4OC)CC3)CC2)cc1	21%[15.4 µM]	3	-13	nt	2%	-6.4	?
O=C(CN1CCCCCC1)N1c2ccccc2Sc2ccc(C(F)(F)F)cc21	6%	-5	-28	-0.1%	-23%	2.7	-1%
Cc1ccc(N(CCC(=O)O)S(=O)(=O)c2ccccc2)cc1	-1%	1	-13	-7.1%	-3%	-3.6	22%
Cc1cc(Cl)ccc1NC(=S)NCc1ccccc1Cl	-11%	-15	10	0.8%	-10%	-0.4	-26%
COC(=O)c1cccc(NC(=O)c2ccco2)c1	-7%	-5	7	-2.3%	5%	-0.1	16%
O=C(CCc1cccc(Cl)c1)N1CCCC(Nc2ccccc2)C1 (stereo unspecified)	20%	-2	-31	-0.9%	-13%	-0.2	7%
O=C(Nc1nnc(-c2ccc(Cl)s2)o1)C1CC1	2%[15.4 µM]	-24	-11	nt	2%	0.4	5%
COc1ccc(/C=C2\SC(=O)N(CCn3cnnn3)C2=O)cc1	-2%[15.4 µM]	-24	-10	nt	-12%	-1.6	11%
O=P(O)(c1ccccc1)c1ccccc1O	17%	19	2	-0.1%	4%	0.8	8%
CCOc1cc(C2NC(=O)N(C)C(C)=C2C(=O)OC)cc(Br)c1O (stereo unspecified)	?	nt	-2	0.2%	-22%	33[activator]	-3%
CCn1cc(C(=O)NCc2ccc3c(c2)OCO3)c(=O)c2cc(S(=O)(=O)N3CCOCC3)ccc21	-24%	-8	-12	-6.6%	?	4.7	4%
O=C1NC(=S)SC1=Cc1cccs1	-20%	nt	-11	nt	-18%	nt	nt
COC(=O)Cn1cc(C(=O)OC)cc(Br)c1=O	-15%	-4	-8	0.5%	5%	0.8	9%
CN1CCCC(OC(=O)c2cccc(Br)c2)C1 (stereo unspecified)	2%[15.4 µM]	-11	-12	-1.1%	8%	3.9	12%
CCc1c(C)sc(NC(=S)N2CCN(S(C)(=O)=O)CC2)c1C(=O)OC	?	-12	-7	-1.7%	-14%	2.4	-14%
CC(C)c1ccc(C(C(=O)NC2CCCCC2)N(C(=O)c2ccccn2)c2cccnc2)cc1 (stereo unspecified)	8%[15.4 µM]	15	-4	nt	7%	1.7	4%
CC(C)(C)NCC(O)(c1ccc(Cl)cc1)c1ccc(Cl)cc1	-12%[15.4 µM]	0	-4	nt	5%	-2.7	5%
CCc1cc2c(=O)c(-c3nc(C)cs3)c(CCCC(=O)O)oc2cc1O	15%	13	1	nt	-10%	-4.6	9%
O=C(/C=C/c1cccnc1)c1cc(F)ccc1O	18%	nt	-16	3.5%	-5%	0.4	-29%
O=C(Nc1ccccc1Sc1ccccc1)c1ccccc1F	?	nt	-3	1.3%	6%	nt	nt
Fc1ccc(F)c(NC(=S)NCCc2ccccc2)c1	-3%[15.4 µM]	-16	-10	0.0%	-3%	0.0	-11%
CC1=NN(C(=O)CSCc2ccccc2)C(O)(c2ccc(F)cc2)C1 (stereo unspecified)	13%	-4	-1	nt	2%	-2.1	20%
COc1ccc(S(=O)(=O)NC2(C(F)(F)F)NC(=O)N(CCc3ccc(OC)c(OC)c3)C2=O)cc1 (stereo unspecified)	-5%[15.4 µM]	4	-7	0.5%	1%	nt	13%
N/C(=N\OC(=O)CCCOc1ccccc1)c1ccncc1	7%	-5	6	nt	1%	-1.9	8%
COc1cccc(CNC(=O)c2nnn(CC(=O)Nc3cccc(C)c3)c2N)c1	12%	6	-12	-0.9%	17%	1.1	12%
O=C1c2[nH]nc(-c3ccccc3O)c2C(c2cccc(Cl)c2)N1CC1CCCO1 (stereo unspecified)	-37%[inhibitor]	-2	14	-1.4%	-13%	1.4	-8%
COc1ccccc1N1CCN(Cc2cc(Br)c(O)c3ncccc23)CC1	27%	-1	-13	-1.9%	0%	-1.9	17%
O=C(Cc1ccccc1F)Nc1cc(Cl)ccc1N1CCCC1	?	-13	-3	nt	-24%	nt	14%
O=C(NCc1ccccc1F)c1cccs1	4%	3	-6	-2.7%	6%	3.2	4%
CCc1nnc(NC(=O)CCC(=O)NCC2CCCO2)s1 (stereo unspecified)	?	-6	-14	-1.7%	13%	5.4	3%
O=C(O)c1cn(Cc2ccccc2)c2ccccc2c1=O	-1%[15.4 µM]	1	-8	0.6%	10%	-0.1	-3%
COc1cccc(NC(=O)CSc2ccccn2)c1	9%	-25	-10	0.3%	3%	0.9	7%
COc1ccc2ccc(OC)c(/C=N/NC(=O)c3cc4ccccc4o3)c2c1	16%	nt	-17	-26%	nt	nt	nt
CCOC(=O)C1=C(C)NC(SC(C)=O)=NC1c1ccc(OC(C)=O)c(OC)c1 (stereo unspecified)	19%	12	0	-5.5%	-3%	-2.9	0%
O=C(NN1C(=O)c2ccccc2NC1c1cccnc1)c1ccccc1 (stereo unspecified)	-40%[inhibitor]	2	-8	?	7%	-2.2	6%
N#Cc1ccccc1NC(=S)NC(=O)c1cccnc1	0%[15.4 µM]	-1	-8	0.2%	-6%	3.1	50µM*
CCn1c(NC(=O)c2ccccc2)nc2ccccc21	-7%[15.4 µM]	0	-9	nt	-5%	-1.4	-2%
CN(C)C(=O)Cn1c(SCC(=O)NC2CCCCC2)nc2ccccc21	-28%	27	-7	-1.3%	9%	4.9	12%
CCN1C(=O)/C(=C2/Sc3ccccc3N2CC)SC1=S	-15%	0	17	-0.7%	-12%	?	-4%
Cc1ccc(S(=O)(=O)Nc2ccc3c(c2)CC(=O)N([C@H](C)CO)C[C@@H](C)[C@H](CN(C)Cc2ccc(-c4ccccc4)cc2)O3)cc1	nt	nt	-5	0.1%	-10%	nt	nt
CCN(CC)C(=O)C1=C(C)N(CCCOC)C(=O)C(CC(=O)NCCCCc2ccccc2)C1 (stereo unspecified)	-56%	nt	3	-0.3%	nt	nt	nt
Cc1cccc(C(=O)OCC(=O)c2ccc3c(c2)OCO3)c1O	-17%	-13	-3	0.4%	-24%	5.2	-1%
O=C(O)CC(SCc1ccc(C(=O)O)o1)C(=O)O (stereo unspecified)	-1%	3	2	1.0%	8%	1.8	2%
CCOc1cc(CN2CCN(c3ncccn3)CC2)ccc1OC	10%[15.4 µM]	-15	-5	0.2%	-12%	-2.1	-9%
COc1ccc(C(=O)n2c(-c3ccco3)nc3ccccc32)cc1	-1%	-9	-8	6.8%	-3%	6.3	-26%
COc1ccc(C(=O)Nc2ccnn2C2CCN(CC3CC=CCC3)CC2)cc1 (stereo unspecified)	?	6	-21	-0.6%	11%	nt	12%
Cc1nc2[nH]c(=O)c3c(n2n1)NC1=C(C(=O)CC(C)(C)C1)C3c1ccccc1 (stereo unspecified)	4%	-6	-5	?	-25%	0.1	19%
Cn1c(SCC(=O)c2c(N)n(C)c(=O)n(C)c2=O)nnc1-c1ccc(F)cc1	?	6	-3	-1.9%	12%	5.6	-5%
CC[C@]12c3[nH]c4cc(CCC(=O)N(C)C)ccc4c3CCN1C(=O)[C@@H](CC(=O)NCc1ccco1)C[C@@H]2C(=O)N1CCN(C(=O)c2ccco2)CC1	nt	nt	3	1.1%	15%	nt	nt
COc1cc(OC)cc(C(=O)NNc2nc3cc4c(cc3s2)OCO4)c1	-14%	16	2	1.1%	-6%	0.3	79µM*
Cc1nc(CNS(=O)(=O)c2cc(F)ccc2F)cs1	-27%	24	-1	1.0%	-2%	1.8	4%
CCOC(=O)CC(=O)CSc1nnc2c(n1)[nH]c1ccccc12	?	10	-10	1.8%	-12%	1.2	7%
O=C(NN=C1CCCC1)c1ccn[nH]1	0%	-4	8	-3.3%	1%	-2.3	-2%
CCN(CC)CCN(C(=O)c1ccc2c(c1)OCCO2)c1nc2cc3c(cc2s1)OCO3	-9%	0	-40	1.7%	3%	?	-7%
O=C(CCCn1cnc2ccccc2c1=O)Nc1ccccc1F	27%	-2	2	nt	4%	5.9	-15%
COC(=O)NCC(c1cccnc1)N1CCN(c2ccccc2F)CC1 (stereo unspecified)	-78%[inhibitor]	-2	-5	-0.4%	9%	1.4	10%

Random excerpt: four records from the list, in no set order.
SMILES	gsp agonist	TRPV1 PAM	D2 PAM	ClpP mod	gsp antag	Menin-MLL FL inh	Sfp PPTase inh
N#Cc1ccccc1NC(=S)NC(=O)c1cccnc1	0%[15.4 µM]	-1	-8	0.2%	-6%	3.1	50µM*
Cc1nc2[nH]c(=O)c3c(n2n1)NC1=C(C(=O)CC(C)(C)C1)C3c1ccccc1 (stereo unspecified)	4%	-6	-5	?	-25%	0.1	19%
O=C(NN=C1CCCC1)c1ccn[nH]1	0%	-4	8	-3.3%	1%	-2.3	-2%
Cn1c(SCC(=O)c2c(N)n(C)c(=O)n(C)c2=O)nnc1-c1ccc(F)cc1	?	6	-3	-1.9%	12%	5.6	-5%

Source: PubChem BioAssay
